Vaccinia inh – blocks a specific stage of Vaccinia orthopoxvirus infection, primary screen, cell-based, single point; Vaccinia-infected cells, mCherry/Venus stage reporter fluorescence; active compounds read low; some inactives read as strong as hits; activity change (mCherry), % (no concentration beside the values); 0.01% of 89,000 active; AID 1053133, 2014;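 active = mCherry past -33% and 40 or more points under the early reporter, replicates agreeing; inconclusive = past -33% without that gap or agreement; tested in A549 cells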;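 note: scaled between vehicle wells and reference inhibitor wells; 23 nL library stock went into each well; one replicate is shown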
Vaccinia inh Venus – also measured in Vaccinia inh; calls as there; activity change (Venus), %; measured here: Venus reporter, other viral stage;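 negative = less Venus signal; first of two replicates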
An asterisk follows results filed as active; ? = inconclusive; nt = not tested or not shown; & = joins results of further samples. A portion of the library; rates above refer to the full screens.

SMILES	Vaccinia inh	Vaccinia inh Venus
Cc1ccc(-c2ccc(C3[C@H]4CNC[C@@H]3N4S(=O)(=O)c3ccc(C)cc3)cc2)cc1 (stereo partly drawn)	-11	0
Cc1ccccc1-c1ccc([C@@H]2[C@H](CO)N3CCCCN(CC4CCOCC4)C[C@@H]23)cc1	-24	-29
C[C@H]1CN([C@@H](C)CO)C(=O)c2cccc(NS(=O)(=O)c3cn(C)cn3)c2O[C@H]1CN(C)C(=O)Nc1ccccc1	11	7
CCS(=O)(=O)N1CCC2(CC1)CN(C(=O)Nc1cccc(F)c1)[C@@H](CO)c1c2c2ccc(OC)cc2n1C	?	nt
O=C(N[C@@H]1CC[C@@H](CCNC(=O)c2cnccn2)O[C@H]1CO)c1ccc2c(c1)OCO2	0	-6
O=C(Nc1ccc2c(c1)[C@@H]1C[C@@H](CC(=O)N3CCCCC3)O[C@H](CO)[C@@H]1O2)C1CCOCC1	-3	1
C[C@@H]1CN([C@@H](C)CO)C(=O)c2cc(NS(=O)(=O)c3ccccc3)ccc2O[C@@H](C)CCCCO[C@@H]1CN(C)C(=O)Nc1ccccc1	-2	-4
O=C(Cc1ccccn1)N1CCCCN2[C@@H](CO)[C@H](c3ccc(C#Cc4ccccc4)cc3)[C@@H]2C1	-12	-18
C[C@@H]1CN([C@@H](C)CO)C(=O)Cc2cc(NC(=O)C3CC3)ccc2O[C@@H]1CN(C)Cc1ccc(Oc2ccccc2)cc1	-27	-19
C[C@@H]1CN([C@@H](C)CO)C(=O)c2cc(NC(=O)c3ccncc3)ccc2O[C@@H](C)CCCCO[C@H]1CN(C)C	10	5
O=C(Nc1ccccc1Cl)N1C[C@@H]2[C@H](c3ccccc31)[C@H](CO)N2Cc1ccccc1	-19	-16
C[C@H]1CN([C@@H](C)CO)S(=O)(=O)c2ccc(C#CC(C)(C)O)cc2O[C@@H]1CN(C)C(=O)CC1CC1	7	-5
C/C=C/c1cnc2c(c1)C(=O)N([C@@H](C)CO)C[C@H](C)[C@@H](CN(C)CC1CCOCC1)O2	12	-4
CO[C@H]1CN(C)C(=O)c2ccc(NC(=O)Nc3ccc(F)cc3)cc2OC[C@@H](C)NC[C@@H]1C	-6	-2
COc1cccc(NC(=O)N(C)C[C@H]2OCc3cnnn3CCCC(=O)N([C@@H](C)CO)C[C@@H]2C)c1	5	-5
C[C@@H]1CN([C@@H](C)CO)C(=O)c2cc(N(C)C)ccc2O[C@H]1CN(C)S(=O)(=O)c1ccc(Cl)cc1	0	1
CO[C@@H](CN(C)C(=O)c1ccc2c(c1)OCO2)[C@@H](C)CN([C@H](C)CO)S(=O)(=O)c1ccc(F)cc1	-1	7
C[C@@H]1CN([C@H](C)CO)C(=O)Cc2cc(NS(=O)(=O)c3ccccc3)ccc2O[C@H]1CN(C)CC1CC1	9	2
C[C@@H]1CN([C@@H](C)CO)C(=O)c2cc(NC(=O)c3ccncc3)ccc2O[C@@H](C)CCCCO[C@@H]1CN(C)C(=O)Nc1ccc(C(F)(F)F)cc1	3	-2
C[C@@H]1CN([C@H](C)CO)C(=O)c2cc(NC(=O)CCCCCC(=O)Nc3ccccc3N)ccc2O[C@@H]1CN(C)C(=O)NC1CCCCC1	-10	-7
CO[C@H]1CN(C)C(=O)c2cc(NC(=O)c3ccc(F)cc3)ccc2OC[C@H](C)N(C(=O)CN(C)C)C[C@@H]1C	10	9
C[C@@H]1CN([C@H](C)CO)C(=O)c2cccc(NS(=O)(=O)c3ccc(F)cc3)c2O[C@H]1CN(C)Cc1ccc(C(=O)O)cc1	22	15
O=C(Nc1cccc(F)c1)N1CC(=O)N2[C@H](CO)[C@H](c3ccc(Br)cc3)[C@H]2C1	-8	-19
CC(C)NC(=O)Nc1ccc2c(c1)CC(=O)N([C@H](C)CO)C[C@@H](C)[C@H](CN(C)C(=O)Nc1cccc3ccccc13)O2	13	3
C[C@@H]1CN([C@@H](C)CO)C(=O)Cc2cc(NC(=O)Nc3ccc4c(c3)OCO4)ccc2O[C@@H]1CN(C)Cc1ccc(C(F)(F)F)cc1	?	nt
Cc1nc(S(=O)(=O)NC2CCN(Cc3ccc(OCCO)cc3)CC2)cn1C	0	-5
CC(C)NC(=O)NCC[C@@H]1CC[C@@H](NC(=O)CCN2CCCCC2)[C@H](CO)O1	8	-2
C[C@H]1CN([C@@H](C)CO)C(=O)c2cc(NS(=O)(=O)c3cn(C)cn3)ccc2O[C@H]1CN(C)C(=O)Nc1ccccc1	-3	-4
CCC(=O)N1CC2(C1)[C@H](c1ccccc1)[C@H](CO)N2Cc1cc(F)ccc1F	-4	-2
COc1ccc(S(=O)(=O)Nc2ccc3c(c2)C(=O)N([C@H](C)CO)C[C@@H](C)[C@H](CN(C)S(=O)(=O)c2ccccc2)OCCCC[C@H](C)O3)cc1	?	nt
CC(=O)NC[C@H]1[C@H](c2ccc(-c3ccccc3F)cc2)[C@@H](CO)N1C(=O)C1CC1	0	7
C[C@@H]1CN([C@@H](C)CO)C(=O)Cc2cc(NS(=O)(=O)c3ccc(Cl)cc3)ccc2O[C@@H]1CN(C)Cc1ccc(C(=O)Nc2ccccc2N)cc1	-9	-7
C[C@H](NC(=O)[C@H]1[C@H](CO)[C@H]2Cn3c(cccc3=O)[C@@H]1N2C(=O)C1CC1)c1ccccc1	10	2
O=C(C[C@@H]1CC[C@@H]2[C@H](COC[C@@H](O)CN2Cc2cccc(F)c2)O1)NCCc1ccncc1	3	8
CC(C)NC(=O)N(C)C[C@H]1Oc2ccc(NC(=O)Cc3cn(C)c4ccccc34)cc2C(=O)N([C@@H](C)CO)C[C@@H]1C	6	2
C[C@@H]1CCCCO[C@H](CN(C)C(=O)C2CCCCC2)[C@@H](C)CN([C@H](C)CO)C(=O)c2cc(NC(=O)Nc3ccc4c(c3)OCO4)ccc2O1	-2	-4
C[C@@H]1CN([C@@H](C)CO)C(=O)c2cc(NC(=O)Cc3cn(C)c4ccccc34)ccc2O[C@H]1CN(C)C(=O)Nc1ccccc1	13	5
C[C@@H]1CCCCO[C@@H](CN(C)S(=O)(=O)c2ccc(Cl)cc2)[C@H](C)CN([C@@H](C)CO)C(=O)c2cc(NC(=O)Nc3cccc4ccccc34)ccc2O1	13	18
CCC(=O)N1CC(=O)N2[C@H](CO)[C@H](c3ccc(C#Cc4cccnc4)cc3)[C@@H]2C1	4	7
CN(C)C(=O)c1ccc(-c2ccc(C3[C@@H]4CN(S(=O)(=O)c5ccccc5)C[C@H]3N4)cc2)cc1 (stereo partly drawn)	-12&-30	-10&-25
CO[C@H]1CN(C)C(=O)c2cc(NS(C)(=O)=O)ccc2OC[C@@H](C)N(C(=O)CC2CC2)C[C@@H]1C	12	5
C[C@@H]1CN([C@H](C)CO)C(=O)Cc2cc(NC(=O)CCN3CCOCC3)ccc2O[C@@H]1CN(C)C(=O)Nc1ccc(C(F)(F)F)cc1	0	-3
CO[C@H](CN(C)C(=O)C1CCOCC1)[C@@H](C)CN([C@H](C)CO)S(=O)(=O)c1ccccc1	19	14
COc1cccc(C#Cc2ccc([C@@H]3[C@@H](C#N)N(C(=O)C4CC4)[C@@H]3CO)cc2)c1	-2	-7
CC(C)NC(=O)Nc1ccc2c(c1)C(=O)N([C@@H](C)CO)C[C@H](C)[C@@H](CN(C)CC1CCCCC1)OCCCC[C@@H](C)O2	5	-3
O[C@@H](Cc1ccccc1)[C@@H](/C=C/C1CC1)N(CC#Cc1ccccc1)Cc1ccccc1Br	6	8
CO[C@@H]1CN(C)C(=O)c2cc(NC(C)=O)ccc2OC[C@H](C)N(C(=O)Cc2cccnc2)C[C@@H]1C	8	8
COc1ccc(CN2C[C@H](O)COC[C@H]3O[C@H](CC(=O)N(C)C)CC[C@@H]32)cc1	2	5

In the list so far, these have an aryl methoxy group.
SMILES	Vaccinia inh	Vaccinia inh Venus
CCS(=O)(=O)N1CCC2(CC1)CN(C(=O)Nc1cccc(F)c1)[C@@H](CO)c1c2c2ccc(OC)cc2n1C	?	nt
COc1cccc(NC(=O)N(C)C[C@H]2OCc3cnnn3CCCC(=O)N([C@@H](C)CO)C[C@@H]2C)c1	5	-5
COc1ccc(S(=O)(=O)Nc2ccc3c(c2)C(=O)N([C@H](C)CO)C[C@@H](C)[C@H](CN(C)S(=O)(=O)c2ccccc2)OCCCC[C@H](C)O3)cc1	?	nt
COc1cccc(C#Cc2ccc([C@@H]3[C@@H](C#N)N(C(=O)C4CC4)[C@@H]3CO)cc2)c1	-2	-7
COc1ccc(CN2C[C@H](O)COC[C@H]3O[C@H](CC(=O)N(C)C)CC[C@@H]32)cc1	2	5

Other compounds:
SMILES	Vaccinia inh	Vaccinia inh Venus
C[C@H](CO)N1C[C@H](C)[C@H](CN(C)Cc2cncnc2)Oc2ncc(C#CC3CCCCC3)cc2C1=O	6	10
CCC(=O)N1[C@H](CO)[C@H]2c3ccccc3N(S(=O)(=O)c3ccc(F)cc3)C[C@H]21	14	18
C[C@@H]1CN([C@@H](C)CO)C(=O)c2cccc(NC(=O)Nc3ccccc3)c2O[C@H]1CN(C)Cc1ccccc1	-20	-11
COc1ccccc1-c1cn(CC[C@H]2CC[C@H](NC(=O)C3CCCC3)[C@H](CO)O2)nn1	-10	-5
C[C@@H]1CN([C@H](C)CO)C(=O)Cc2cc(NC(=O)Cc3cn(C)c4ccccc34)ccc2O[C@H]1CN(C)Cc1ccc(C(F)(F)F)cc1	?	nt
C[C@H](CO)N1C[C@H](C)[C@@H](CN(C)Cc2cccc(C(F)(F)F)c2)OCc2cn(nn2)CCCC1=O	-3	2
O=C(Nc1ccc(F)cc1)N1CCCCN2[C@H](CO)[C@@H](c3ccc(-c4ccccc4F)cc3)[C@H]2C1	?	nt
C[C@H]1CN([C@@H](C)CO)C(=O)c2c(c3ccccc3n2C)-c2ccccc2CO[C@@H]1CN(C)Cc1ccc2c(c1)OCCN2C	-30	-36
O=C(c1ccc(F)cc1)N1CC(=O)N2[C@H](CO)[C@@H](c3ccc(C#Cc4ccc(F)cc4)cc3)[C@@H]2C1	6	1
COc1ccc(NC(=O)N(C)C[C@@H]2Oc3c(NC(=O)c4cnccn4)cccc3C(=O)N([C@H](C)CO)C[C@H]2C)cc1	18	9
COC(=O)[C@H](Cc1ccccc1)N1C(=O)O[C@@H](Cc2ccccc2)[C@H]1/C=C/C1CC1	-32	-24
CCCC(=O)Nc1ccc2c(c1)OC[C@@H](C)N(C(=O)c1ccncc1)C[C@H](C)[C@H](OC)CN(C)C2=O	20	-2
C[C@H]1CN([C@@H](C)CO)C(=O)c2cccc(NC(=O)C3CC3)c2O[C@H]1CN(C)Cc1ccc(-c2ccccc2)cc1	-23	-12
CC(=O)N(C)C[C@H]1Oc2cc(-c3cncnc3)ccc2S(=O)(=O)N([C@@H](C)CO)C[C@@H]1C	20	17
C[C@@H]1CN([C@H](C)CO)C(=O)c2cccc(NS(=O)(=O)c3cn(C)cn3)c2O[C@@H]1CN(C)S(=O)(=O)c1cn(C)cn1	31	32
CN1CCN(C(=O)C[C@H]2CC[C@H]3[C@@H](COC[C@H](O)CN3Cc3cccc(-c4ccncc4)c3)O2)CC1	4	2
COc1ccc(NC(=O)N(C)C[C@@H]2Oc3ncc(C4=CCCC4)cc3C(=O)N([C@H](C)CO)C[C@H]2C)cc1	7	0
C[C@@H]1CN([C@@H](C)CO)C(=O)c2cc(NC(=O)C3CC3)ccc2O[C@@H]1CN(C)Cc1ccc(Oc2ccccc2)cc1	?	nt
C[C@@H]1CN([C@@H](C)CO)C(=O)c2cc(NC(=O)Cc3ccccc3)ccc2O[C@@H]1CN(C)C(=O)NC1CCCCC1	-18	-16
COc1ccc(NC(=O)Nc2ccc3c(c2)C(=O)N([C@H](C)CO)C[C@H](C)[C@@H](CN(C)Cc2ccccc2)O3)cc1	7	2
Cc1ccc(S(=O)(=O)N(C)C[C@@H]2Oc3ccc(NC(=O)CCCN(C)C)cc3C(=O)N([C@@H](C)CO)C[C@H]2C)cc1	5	8
CC=Cc1ccc2n(c1=O)C[C@@H]1[C@@H](CO)[C@H](C(=O)N[C@@H](C)c3ccccc3)[C@H]2N1Cc1ccncc1 (mixture of isomers)	2	9
CCCC#Cc1ccc2c(c1)[C@H]1[C@H](CCN1Cc1ccccc1F)[C@@H](CO)N2	3	5
CC(C)CC#Cc1cnc2c(c1)C(=O)N([C@@H](C)CO)C[C@@H](C)[C@@H](CN(C)Cc1ccccn1)O2	-4	-10

Compounds from the list above containing a CF3 group:
SMILES	Vaccinia inh	Vaccinia inh Venus
C[C@@H]1CN([C@@H](C)CO)C(=O)c2cc(NC(=O)c3ccncc3)ccc2O[C@@H](C)CCCCO[C@@H]1CN(C)C(=O)Nc1ccc(C(F)(F)F)cc1	3	-2
C[C@@H]1CN([C@@H](C)CO)C(=O)Cc2cc(NC(=O)Nc3ccc4c(c3)OCO4)ccc2O[C@@H]1CN(C)Cc1ccc(C(F)(F)F)cc1	?	nt
C[C@@H]1CN([C@H](C)CO)C(=O)Cc2cc(NC(=O)CCN3CCOCC3)ccc2O[C@@H]1CN(C)C(=O)Nc1ccc(C(F)(F)F)cc1	0	-3
C[C@@H]1CN([C@H](C)CO)C(=O)Cc2cc(NC(=O)Cc3cn(C)c4ccccc34)ccc2O[C@H]1CN(C)Cc1ccc(C(F)(F)F)cc1	?	nt
C[C@H](CO)N1C[C@H](C)[C@@H](CN(C)Cc2cccc(C(F)(F)F)c2)OCc2cn(nn2)CCCC1=O	-3	2

Other records:
SMILES	Vaccinia inh	Vaccinia inh Venus
COc1ccc(C(=O)Nc2ccc3c(c2)C(=O)N(C)C[C@H](OC)[C@H](C)CN[C@@H](C)CO3)cc1	-1	6
CN(C)C(=O)C[C@@H]1C=C[C@@H](NC(=O)Nc2cccc(F)c2)[C@@H](CO)O1	5	11
COC(=O)C[C@@H]1C[C@H]2c3cc(NC(=O)C4CCOCC4)ccc3O[C@H]2[C@@H](CO)O1	7	13
COc1cccc(NC(=O)N[C@@H]2CC[C@@H](CC(=O)NCc3ccncn3)O[C@H]2CO)c1	-7	-2
CCCC#Cc1ccc2c(c1)O[C@H](CN(C)C(=O)C1CCC1)[C@H](C)CN([C@H](C)CO)S2(=O)=O	?	nt
O=C(C[C@@H]1C[C@H]2c3cc(NC(=O)c4ccc5c(c4)OCO5)ccc3O[C@H]2[C@@H](CO)O1)NC1CCCC1	11	5

Bioassay records from PubChem BioAssay.
